High-throughput results deposited in PubChem BioAssay by Fisher Drug Discovery Resource Center.
NPYLR7 ag: agonists of mosquito NPYLR7 receptor, primary screen, cell-based, Aedes aegypti, calcium fluorescence, mosquito biting behavior; activation, % at 10 µM; AID 1259423, 2018; actives 0.15% (n = 270,000); HEK293T NPYLR7/Galpha15, GCaMP6s calcium fluorescence; in the data active = activation above about 40%;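 also: 0% = vehicle and 100% = reference agonist at the receptor; some compounds past the cut are filed as inactive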
NPYLR7 ag max-min: also measured in NPYLR7 ag; calls as there; activation, %; measured here: Max-Min RFU normalised activation; some inactives read as strong as hits;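 span of the calcium signal over five minutes; 0% = vehicle and 100% = native peptide agonist; compound fluorescence can raise it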
Active calls of the source: *; & = joins results of further samples. Some of the compounds tested, so the mix of outcomes need not match the whole.

Fields – NPYLR7 ag	NPYLR7 ag max-min
Cc1nonc1CC(=O)N1CCC(CCC(=O)N(C)Cc2ccccc2)CC1
    2.7	-4.1
COC(=O)Cc1cc(C2CCN(Cc3cc(C)ccc3O)CC2)n[nH]1
    4.1	2.5
Cc1[nH]n(-c2nc(-c3ccc(Cl)cc3)cs2)c(=O)c1N=Nc1cccc(C(=O)O)c1
    -2.6	-6.1
CSc1nc(-c2ccc(Cl)cc2Cl)[nH]c(=O)c1C#N
    2.9	1.2
COC(=O)c1cc(OC)cc2c1OC(CNC(=O)c1ccc(F)c(F)c1)C2 (stereo not drawn)
    21.9	16.5
CCn1nccc1C1CCCN1C(=O)Nc1cc(OC)cc(OC)c1 (stereo not drawn)
    4.5	3.3
Cn1c2nc3ccccc3nc2c2cc(Br)cc(Br)c21
    1.3	0.7
CCOc1ccccc1-c1c(C#N)c(N)nc(OC)c1C#N
    32.9	12.0
O=C(NCc1nc2ccccc2[nH]1)c1cccnc1Nc1cccc(Cl)c1
    1.0	-1.8
NCc1cn[nH]c1-c1cccs1
    -12.4	-20.6
CCCC1CCC(c2ccc(C#N)c(=O)[nH]2)CC1 (stereo not drawn)
    2.8	2.5
COC(=O)c1cc(N2CCOCC2)ccc1NC(=O)C(C)Oc1ccc(C)cc1 (stereo not drawn)
    4.1	2.0
Cc1ccccc1OCCC(=O)N1CCC2(CC1)C(=O)NCCN2C
    6.7	4.7
CCOC(=O)C1CCN(CC(=O)N2N=C(c3cccc(F)c3)CC2c2ccc(OC)cc2)CC1 (stereo not drawn)
    21.9	19.1
CCCc1c(C)nn(-c2ccc(C(=O)Nc3ccccc3C)cc2)c1C
    -9.3	-13.5
Cc1ccc(-c2ccsc2C(=O)N2CCCC(NS(C)(=O)=O)C2)cc1 (stereo not drawn)
    6.3	4.8
Cc1cc(C)n(-c2ccc(C(F)(F)F)cc2NC(=O)CNC(=O)C2CC2)n1
    2.0	0.9
CO[C@H]1C(=O)N(C)C2(CCN(C(=O)OCc3ccccc3)CC2)[C@@H]1C(=O)N(C)c1ccccc1
    2.4	12.5
Cc1cc(C)cc(NC(=O)Cn2nc(C(C)C)c3cnn(-c4ccc(F)cc4)c3c2=O)c1
    4.6	2.2
Brc1ccccc1C=NNc1nc2ccccc2o1
    5.1	5.7
CN1CCC(CCN2CCN(C)CC2)CC1
    7.8	5.3
CCc1cc(-c2ccc3c(c2)OCCO3)ccc1NC(C)=O
    24.6	17.8
CCOc1ccc(-n2c(CNC(=O)c3ccco3)nnc2SCC(=O)Nc2nccs2)cc1
    3.3	3.7
Cc1c(C(=O)NCCCn2ccnc2)cnc2c(-c3ccc(C(C)C)cc3)cnn12
    13.1	8.6
O=C(CCc1ccccc1)N1CCC(c2nc(-c3ccc4c(c3)OCO4)no2)CC1
    4.0	0.5
Cc1ccc(Br)cc1S(=O)(=O)NC(C)c1ccccn1 (stereo not drawn)
    0.6	-2.4
CNC(=O)C(O)C(O)C(=O)NC (stereo not drawn)
    3.0	6.7
CCC1CN(C(=O)c2ccc3[nH]c(C)c(C)c3c2)CCN1 (stereo not drawn)
    -2.7	11.2
O=C1CN(Cc2ccco2)C2CS(=O)(=O)CC2N1c1ccccc1 (stereo not drawn)
    0.0	-1.8
O=C(Nc1nc(CN2CCCCC2)cs1)c1cc(F)cc(F)c1
    1.6	1.6
Cc1ccc(N2CCC(N3CCCn4cncc4C3)CC2)cc1
    5.3	3.8
CCN(CC)c1onc(-c2ccc(F)cc2)c1CNCCOC
    22.1	19.3
OCCC1CN(Cc2cn[nH]c2-c2cccc(F)c2)CCN1C1CCCC1 (stereo not drawn)
    3.2	1.6
O=C1NCCN(S(=O)(=O)NCc2ccccc2)C1c1cccc(F)c1 (stereo not drawn)
    0.6	-3.0
O=C(Cn1cnnn1)N1CCOC(COc2cccc(C(F)(F)F)c2)C1 (stereo not drawn)
    21.9	23.4
CN=c1scc(-c2cc(OC)ccc2OC)n1N=C1CCc2ccccc21
    -9.0	-17.2
CCN(CC(=O)N1CC(=O)N(c2ccc(Cl)cc2)C1)C(=O)c1cccc(OC)c1
    -6.2	3.3
COCCNC(=O)C1(C)CCCN(Cc2cc3ccccc3o2)C1 (stereo not drawn)
    1.8	5.4
C=C(C)C(C)(C)C(=O)N1CCN2C(=O)CNC(=O)C2C1 (stereo not drawn)
    8.8	4.8
CCCCCC(=O)Nc1nnc(COc2ccccc2)s1
    2.2	2.2
COc1ccc(CCNC(=O)c2cccnc2N2CCN(C(=O)c3cccc(Cl)c3)CC2)cc1OC
    -2.1	-4.8
O=C(NCc1ccco1)[C@@]1(OCc2cccc(Cl)c2)CC(OCc2ccccc2F)[C@H](O)[C@H](O)C1 (stereo partly drawn)
    10.7	14.4
CS(=O)(=O)c1oc(-c2ccc(F)cc2)nc1S(=O)(=O)c1ccc(F)cc1
    5.1	-0.5
Cc1nc2n(c(=O)c1C)C(CC(=O)NCC1CCCO1)CS2 (stereo not drawn)
    -1.7	-2.5
O=C1CSC(c2ccc(F)cc2)N1C1CC1 (stereo not drawn)
    -1.8	-3.7
C/C=C\COC1CCCN(C(=O)c2ccccc2OC)C1 (stereo not drawn)
    19.4	17.2
CCc1cc(-c2ccc(C(C)N3CCOCC3)cc2)nc(N2CCOCC2)n1 (stereo not drawn)
    6.7	3.1
O=C(c1cccc(F)c1F)N1CCN(Cc2cccc(-c3noc(-c4cccnc4)n3)c2)CC1
    4.6	2.2
COCC1CCCN(C(=O)CCC2(Cc3ccc(OC)c4ccccc34)CCC(=O)N2)C1 (stereo not drawn)
    15.8	3.5
CC(C)c1ccc(C(=O)Nc2nnc(C(C)C)s2)cc1
    -5.5	-4.6
O=C(C1=CCCCC1)N(CC1CCN(C2Cc3ccccc3C2)CC1)CC1CCCO1 (stereo not drawn)
    6.8	3.1
COCCCn1ccnc1-c1ccc(C)c(F)c1C
    -5.3	-7.6
Cc1ccccc1COC1CCCN(S(=O)(=O)c2ccccc2)C1 (stereo not drawn)
    -7.8	-0.2
CN1CC2(CCN(C(=O)c3cc(-c4cccs4)nn3C)C2)OC1=O (stereo not drawn)
    19.0	15.5
CC(C)Oc1ccc(C(=O)NCc2nnnn2-c2ccccc2)cc1
    2.2	-0.2
Cn1c(=O)c2c(nc(N3CCCCCC3)n2CCSc2nc3ccccc3s2)n(C)c1=O
    -0.6	24.8
O=C1NCCN(Cc2ccc(-c3ccccc3)cc2)C1CC(=O)N1CCCCCC1 (stereo not drawn)
    14.0	3.5
COc1ccc(CCN(C)S(=O)(=O)c2ccc(OC)c(N3CCN(C(=O)c4ccco4)CC3)c2)cc1OC
    -5.3	8.3
CCc1nc2ccc(C(=O)Nc3ccc4c(c3)OCC(=O)N4)cn2c1N(CC)C(=O)CCC1CCCC1
    16.3	8.3
O=C(Cn1ccc2ccccc21)NC1c2ccccc2CC1O (stereo not drawn)
    8.1	3.6

(cont.)
Fields – NPYLR7 ag	NPYLR7 ag max-min
CCc1cnc(C)nc1-c1cc(NCCO)nc2[nH]ccc12
    13.2	10.1
CCOC(=O)Cc1csc(NC(=O)CSc2nnc3ccccn23)n1
    -8.7	-14.7
COC(=O)c1ccc(COC(CN2CCN(C(=O)c3ccccn3)CC2)c2ccc(Cl)cc2)cc1 (stereo not drawn)
    -2.2	7.7
O=C(CCC1CCCN(C(=O)Cc2ccsc2)C1)N1CCN(Cc2ccccc2)CC1 (stereo not drawn)
    -1.7	-6.1
COCCNc1nc(Nc2ccc(C)cc2)c2cnn(-c3ccccc3)c2n1
    -0.4	-3.8
COc1ccc(C2(C(=O)NCc3c(C)nn(-c4ccccc4C)c3C)CCCCC2)cc1
    1.5	2.0
O=C(Nc1ccnc2ccccc12)c1ccc(F)cc1Br
    0.1	-3.3
CCC(C)(CNc1cc(Cl)nc(N)n1)N1CCOCC1 (stereo not drawn)
    6.8	4.5
C=CCn1cc(CN2CCC2c2cccc(OC)c2)c(C)n1 (stereo not drawn)
    -0.9	10.5
CN1CCN(n2c3c(c(SCC(=O)N4CCCc5ccccc54)nc2=O)CCC3)CC1
    -0.2	-2.6
O=C(N=Nc1c(O)n(Cc2ccc(Cl)cc2Cl)c2ccccc12)c1ccncc1
    -2.1	-6.9
COc1cccc(CNC(=O)COC(=O)Cc2ccc3c(c2)OCCO3)c1
    6.5	1.5
Cc1cc(O)c(C(c2ccncc2)N2CCC(C)CC2)c(=O)n1Cc1ccco1 (stereo not drawn)
    11.7	6.2
COC(=O)NC1CCCCC1NC(=O)OC (stereo not drawn)
    9.0	12.1
O=C(COc1ccccc1F)NCCN1CCN(C(=O)c2ccsc2)CC1
    -1.6	-3.9
CN(C)CCCN1C(=O)C(=O)C(=C(O)c2ccc(Br)cc2)C1c1cccc([N+](=O)[O-])c1 (stereo not drawn)
    -1.7	-1.8
Cc1cc(N2CCCC2)n2nc(C)c(-c3ccccc3Cl)c2n1
    -2.3	-3.9
Cc1cc(C)c(NC(=O)NCCCN(C)CC(F)(F)F)c(C)c1
    2.0	1.7
COc1ccc(C2=N/C(=C\c3ccc(C(C)(C)C)cc3)C(=O)O2)cc1OC
    -2.3	-6.2
Cc1nn(C)c(C)c1NC(=O)C(C)Sc1nnc(NC2CC2)s1 (stereo not drawn)
    3.0	1.0
CCOC(=O)c1cc([C@@H](C)CCC=C(C)C)sc1NC(=O)c1cccs1
    -4.0	-4.8
OC(CN1CCOCC1)CN(Cc1cccc(Cl)c1)CC1CC(c2ccc(Cl)cc2)=NO1 (stereo not drawn)
    -2.4	-9.3
COc1ccc(C(=O)N2CCN(c3ncccc3C(=O)NCc3ccc4c(c3)OCO4)CC2)c(OC)c1
    22.7	4.7
Cc1ccc(C(=O)Nc2cccc3[nH]cnc23)cn1
    0.5	-5.4
O=C(Nc1ccc(N2CCCC2)nc1)c1ccc(S(=O)(=O)NC2CC2)cc1
    4.5	3.0
CC1CC(NC(=O)c2cc3c(=O)n4ccccc4nc3s2)CC(C)(C)C1 (stereo not drawn)
    6.5&11.8	1.5&8.2
Cc1cc2ncn(CCCOc3ccccc3)c2cc1C
    1.9	-0.3
OCC#Cc1csc(CN2CCCn3cncc3C2)c1
    2.3	2.9
COc1cccc(N2CC(NC(=O)NCCn3ccc4ccccc43)CC2=O)c1 (stereo not drawn)
    6.1	3.2
COc1ccc(N=Cc2c(NCCO)nc3c(C)cccn3c2=O)cc1
    -3.1	-8.6
Cc1cnc(N(C)CC2CCCO2)nc1N(C)CC1CCCO1 (stereo not drawn)
    0.4	0.2
CC1(C)CC(C(=O)N2CCn3c(C(N)=O)cnc3C2)CCO1 (stereo not drawn)
    6.9	5.9
Cc1[nH]c(=O)[nH]c(=O)c1CCc1nnc(SCC(=O)NCc2ccco2)o1
    -6.8	-12.0
COc1ncc(C(=O)N2CCOC(c3ccc(Cl)c(Cl)c3)C2)cn1 (stereo not drawn)
    2.9	1.1
Cc1ccc(Cn2cnc3c(cnn3CCNC(=O)c3ccco3)c2=O)cc1
    -6.6	-12.9
NC(=O)c1sc2nc3c(c(-c4ccco4)c2c1N)CCC3
    7.9	8.6
COc1cccc(CN2CCC2(C)C(=O)Nc2ccc(Cl)c(Cl)c2)c1F (stereo not drawn)
    3.7	0.8
CCC1CCCCN1c1nc(C)nc2sc3c(c12)CCC3 (stereo not drawn)
    14.1	4.0
Cc1ccc(C(=O)N2CCSc3nnc(-c4ccco4)n32)cc1[N+](=O)[O-]
    4.7	3.1
CCCn1cc(C2CCN(S(=O)(=O)c3cccc(Cl)c3C)CC2)c2ccccc21
    27.8	21.4
O=C(NNc1ncnc2ccccc12)c1ccccc1
    9.5	3.7
CCC(=O)N1CCc2cc(C(=O)N3CCC(C(=O)O)CC3)ccc21
    -3.1	-5.9
CCOC(=O)C1=C(CC)NC2=C(C(=O)CCC2)C1c1ccc([N+](=O)[O-])cc1 (stereo not drawn)
    2.0	1.6
CC(C)NC(=O)C1(C)CCN1C(=O)Cc1ccc(-c2ccccc2)cc1 (stereo not drawn)
    -4.6	34.5
O=C(c1n[nH]c2c1CCC2)N1CCCC(Nc2ccc3c(c2)OCCO3)C1 (stereo not drawn)
    5.2	2.3

Next section; it opens with the 4 that closed the last part.
Fields – NPYLR7 ag	NPYLR7 ag max-min
CCC(=O)N1CCc2cc(C(=O)N3CCC(C(=O)O)CC3)ccc21
    -3.1	-5.9
CCOC(=O)C1=C(CC)NC2=C(C(=O)CCC2)C1c1ccc([N+](=O)[O-])cc1 (stereo not drawn)
    2.0	1.6
CC(C)NC(=O)C1(C)CCN1C(=O)Cc1ccc(-c2ccccc2)cc1 (stereo not drawn)
    -4.6	34.5
O=C(c1n[nH]c2c1CCC2)N1CCCC(Nc2ccc3c(c2)OCCO3)C1 (stereo not drawn)
    5.2	2.3
CS(=O)(=O)c1ccc(CNc2ncc(C(N)=O)cc2Cl)cc1
    0.6	-3.0
CC1=CC(C)(C)N2C(=O)C3(N=C(N)NC(Nc4ccccc4)=N3)c3cc(C)cc1c32 (stereo not drawn)
    4.2	-5.8
Cc1cc(C)n(CCCN(C)Cc2nc[nH]c2C)n1
    6.8	4.3
O=C1C(=Cc2ccc(N3CCCCC3)cc2)SC(=S)N1CCN1CCOCC1
    5.9	15.6
O=C(NCc1ccccn1)c1cc(-c2ccccc2Cl)nn1-c1ccc(Cl)cc1
    20.9	21.4
COC(=O)[C@@H](NC(=O)c1cc(CCc2ccccc2)no1)c1ccccc1
    14.8	1.3
O=C1CCOc2cc(-c3ccnc4[nH]ccc34)ccc21
    -1.3	-3.5
O=C(C(=O)N1CCOc2ccccc21)N1CCN(c2ccncc2)CC1
    5.5	4.2
CCN(CC)c1ccc(/C=C2\SC(=S)N(Cc3ccccc3)C2=O)c(O)c1
    4.6	2.3
COc1ccc(-c2ccnc3[nH]ccc23)cc1OC
    9.2	1.1
